CtBP-E1A inh – qHTS Assay for Inhibitors of the CtBP/E1A Interaction | AlphaScreen GST-E1A/His-CtBP binding, 1536-well; hits give low values; control for the full effect not named in the record | activity change, % (test concentration not listed) | 340,000 tested, 0.49% active; in the data active means activity change below about -65%; inconclusive means about -30% to -65%; inactive means above about -30%; also: % is scaled to controls: 0 for no effect and ±100 for the full control effect; compound concentration not given in the record
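Protein mix (5X: 125 nM each GST-E1A, His-CtBP) was incubated with pinned compound 2 h at 37 deg C in dark, in 50 mM Tris pH 8.0 buffer with 300 mM NaCl. Glutathione donor and nickel acceptor beads followed; AlphaScreen signal read after 1 h.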
TRPML1 ag – qHTS for Agonists of the Human Mucolipin Transient Receptor Potential 1 (TRPML1); TRPML1-expressing cells, Ca2+ dye fluorescence, FDSS; host cell line not named in the record; reference of the full effect not given here; activation, % (concentration not given with the values); 410,000 tested, 0.12% active; AID 624414, 2012; in the data active = activation above about 50%; inconclusive = about 30% to 50%; inactive = below about 30%; also: 0% is about no effect; the text of the record puts the active cut at 80%
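Agonist activity was taken from a 110 s kinetic Ca2+ dye read on the FDSS after pinning compounds onto TRPML1-DL cells. The cells were seeded at 1,500/well with Tet inducer, incubated about 16 h, then dye-loaded at room temperature.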
TRPV1 PAM – HTS Assay for Compounds that Act as Potentiators of the Vanilloid Receptor 1; Transient receptor potential cation channel subfamily V member 1 (Homo sapiens), Q8NER1; TRPV1-expressing cells, Fluo-8 calcium influx, capsaicin EC20 potentiation; host cell line not named in the record; control for the full effect not named in the record; potentiation, % at 8.33 µM; 320,000 tested, 0.02% active; active means potentiation above 80%; inconclusive means 30% to 80%; inactive means below 30%; also: 0% is about no effect
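TRPV1-expressing cells were cultured overnight at 35.5C and loaded with Fluo-8 calcium dye for 40 to 90 min at room temperature. After a 10 s baseline, compound was added and calcium influx was read kinetically for 3 min (ex 480/em 520 nm).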
D2 potentiator – Beta-Arrestin HTS for Positive Allosteric Modulators of the Human D2 Dopamine Receptor: Potentiators; DiscoveRx D2 beta-arrestin cells, luminescence, 90 min; 100% = 57 uM dopamine signal; potentiation, % (test concentration not listed); 360,000 tested, 0.23% active; active = potentiation of 50% or more; inconclusive = 30% to 50%; inactive = 30% or less;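 also: compound concentration not given in the record; tested on top of an EC20 dose of dopamine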
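D2 cells co-treated with compound plus 50 nM dopamine (EC20) for 90 min at 37 deg C to detect potentiation. Beta-arrestin recruitment was read as enzyme-fragment luminescence after 1 h at ambient temperature. Full response was set by 57 uM dopamine.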
TRPML1 blocker – qHTS for Inhibitors of the Human Mucolipin Transient Receptor Potential 1 (TRPML1). Mucolipin-1 (Homo sapiens), Q9GZU1. TRPML1-inducible cells, Ca2+ dye fluorescence, FDSS; hits give low values; inhibition of EC80 agonist-evoked calcium signal. activity change, negative = inhibition, % (concentration not given with the values). 390,000 tested, 0.02% active. AID 624415, 2012; in the data active means activity change below about -50%; inconclusive means about -30% to -50%; inactive means above about -30%;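 also: stimulus is agonist 54-4 at its EC80 concentration; % is scaled to controls: 0 for no effect and ±100 for the full control effect; compound concentration not given in the record; the text of the record puts the active cut at -80%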
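TRPML1-DL cells, Tet-induced overnight (~16 h, 37 °C) at 1,500 cells/well, were loaded with Ca8 no-wash dye plus quencher for 45-90 min at room temperature. Compounds were pinned during FDSS kinetic reading; agonist 54-4 at EC80 (4 uM final) then added.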
Six1-Eya2 inh – qHTS Assay for Inhibitors of the Six1/Eya2 Interaction; AlphaScreen GST-Six1/His-Eya2 binding, biochemical; hits give low values; control for the full effect not named in the record; AID 651725, 2012; 360,000 tested, 0.56% active; activity change, % (test concentration not listed); in the data active = activity change below about -65%; inconclusive = about -30% to -65%; inactive = above about -30%; also: % is scaled to controls: 0 for no effect and ±100 for the full control effect; compound concentration not given in the record
Target sequence (O00167 whole entry, looked up): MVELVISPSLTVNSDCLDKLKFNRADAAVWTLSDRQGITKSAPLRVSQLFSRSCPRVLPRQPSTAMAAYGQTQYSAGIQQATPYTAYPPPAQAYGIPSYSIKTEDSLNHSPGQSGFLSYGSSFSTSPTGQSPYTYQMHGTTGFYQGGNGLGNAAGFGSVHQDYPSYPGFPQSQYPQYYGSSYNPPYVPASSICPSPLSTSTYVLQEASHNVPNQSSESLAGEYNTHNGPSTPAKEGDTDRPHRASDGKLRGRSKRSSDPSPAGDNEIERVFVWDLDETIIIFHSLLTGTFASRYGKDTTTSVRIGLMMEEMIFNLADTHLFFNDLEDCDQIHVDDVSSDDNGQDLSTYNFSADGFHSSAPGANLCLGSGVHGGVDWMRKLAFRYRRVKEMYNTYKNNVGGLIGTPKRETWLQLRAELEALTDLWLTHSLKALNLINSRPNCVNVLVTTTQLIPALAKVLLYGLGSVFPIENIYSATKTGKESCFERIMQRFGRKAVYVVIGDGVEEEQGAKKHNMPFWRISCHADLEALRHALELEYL
Target sequence (Q15475 whole entry, looked up): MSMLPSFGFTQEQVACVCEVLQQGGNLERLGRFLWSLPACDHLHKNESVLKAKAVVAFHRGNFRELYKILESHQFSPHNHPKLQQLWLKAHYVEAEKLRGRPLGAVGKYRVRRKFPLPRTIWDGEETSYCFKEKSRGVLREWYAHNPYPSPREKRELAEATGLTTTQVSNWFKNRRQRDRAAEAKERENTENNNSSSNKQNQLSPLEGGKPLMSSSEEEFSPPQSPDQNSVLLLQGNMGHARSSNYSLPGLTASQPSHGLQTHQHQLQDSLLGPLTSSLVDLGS
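Compounds are tested against tagged Six1 and Eya2 proteins bridged by glutathione donor and nickel acceptor beads; after a one-hour incubation at 37 °C without light, AlphaScreen emission is recorded.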
Numbers without * were called inactive; ? = inconclusive; / = no result given.

Compound	CtBP-E1A inh	TRPML1 ag	TRPV1 PAM	D2 potentiator	TRPML1 blocker	Six1-Eya2 inh
O=C(NC(=S)N(Cc1ccccc1)c1ccccn1)C1CCCCC1	19.2	-0.7	18.1	-4.2	7.7	-0.4
O=C(Nc1cccc(-c2csc(Nc3ccc(Cl)cc3)n2)c1)c1cc([N+](=O)[O-])cc(C(F)(F)F)c1	-6.5	-0.8	-5.5	2.8	19.0	-12.5
COc1cccc2cc(C(=O)NCCc3ccccc3)oc12	3.1	0.5	-10.3	-7.3	-3.8	5.6
COC(=O)C1=C(C)Nc2c(c(=O)n(C)c(=O)n2C)C1c1cccnc1 (stereo not drawn)	-1.3	-0.3	-1.5	0.4	-7.8	-1.2
COc1cccc(C(=O)Nc2nnc(SCC(=O)Nc3ccc(NC(C)=O)cc3)s2)c1	-18.4	1.1	6.3	-4.2	14.3	-20.2
Cc1cc(NC(=O)c2cc3ccccc3o2)ccc1NC(=O)c1ccccc1	6.1	-0.2	-9.4	2.7	-2.3	0.8
COc1ccc(CNC(=O)c2ccc(S(=O)(=O)N3CCCC3)cc2)cc1OC	6.2	1.0	9.1	1.1	29.8	8.5
CCCc1ccc(S(=O)(=O)N(C)S(=O)(=O)c2ccc(F)cc2)cc1	8.2	19.8	-9.1	-3.0	13.2	12.5
CC(COc1ccccc1)N1CCC(CO)(CCc2ccccc2)CC1 (stereo not drawn)	/	-0.1	-3.4	-15.2	-1.6	8.1
O=C(COC(=O)[C@@H]1CCCN1S(=O)(=O)c1ccc(Cl)cc1)NCC(F)(F)F	-1.4	-0.5	2.1	-3.0	-9.9	3.0
COc1ccc2nc(NC(=O)c3ccoc3C)sc2c1	-2.5	0.9	-19.4	-3.1	-18.4	-2.4
COc1ccc(C(=O)CSc2nc(C)cc(C)n2)cc1[N+](=O)[O-]	3.8	0.0	7.8	-5.5	-3.4	-4.6
COc1ccc(CC(N)c2csc(Nc3ccc(S(C)(=O)=O)cc3)n2)cc1 (stereo not drawn)	-17.7	-0.3	/	-6.8	/	-9.7
O=C(NCCN1CCOCC1)C(=O)NCC1OCCCN1S(=O)(=O)c1cc(F)ccc1F (stereo not drawn)	3.1	-0.1	?	-0.7	-10.9	3.8
CSc1nnc(-c2ccc(C(F)(F)F)nc2C)o1	-1.2	0.5	3.1	-5.0	-5.8	6.3
Cc1sc2ncnc(N/N=C/c3cccc(O)c3)c2c1C	-24.1	-1.8	-4.1	-5.7	-8.7	?
COc1ccccc1NC(=O)c1ccc(COc2ccccc2OC)cc1	-3.7	2.2	/	-5.6	-5.1	10.8
COc1ccc(NC(=O)COc2coc(CN3CCc4ccccc4C3)cc2=O)cc1	3.2	0.4	5.7	-3.4	-6.3	-0.8
CCn1c(CC(=O)Nc2ccc(F)cc2)nnc1SCC(=O)Nc1nncs1	1.2	0.2	2.7	-10.0	-1.4	-0.4
CCC1CCCCN1CCCNC(=O)CCC(=O)N1CCOc2ccccc21 (stereo not drawn)	1.4	-0.6	?	-8.2	18.8	1.2

Carrying on:
Compound	CtBP-E1A inh	TRPML1 ag	TRPV1 PAM	D2 potentiator	TRPML1 blocker	Six1-Eya2 inh
CN(C)Cc1cc(O)c(CN(C)C)cc1O	/	1.2	?	-10.3	-8.3	?
COC(=O)Cc1ccc(NC(=S)NC(C)(C)C)cc1	-13.7	0.0	12.5	-42.2	-0.5	22.5
CCOC(=O)c1cc2c(nc1N)CCCC2	-3.2	/	-50.1	-7.5	/	-6.5
COC(=O)c1ccc(CN(C(C)=O)c2ccccc2)o1	-0.6	4.3	1.2	17.5	-8.2	2.8
COc1ccc2c(c1)[nH]c1c(=O)n(/N=C/c3ccc(OC)c(CN4CCCCC4)c3)cnc12	0.6	-0.2	18.8	-2.8	12.4	-0.1
COc1ccc(C(=O)OCCOc2cccc(Cl)c2)cc1S(=O)(=O)N1CCOCC1	-5.2	0.2	-8.7	-18.7	3.9	1.7
COc1ccccc1CN1CCNC(=O)C1CC(=O)NCC1CCOCC1 (stereo not drawn)	2.1	0.7	-5.3	-6.6	-2.2	5.9
O=C1OCCC1Sc1nnc(-c2ccc(Br)cc2)o1 (stereo not drawn)	9.9	-1.1	-13.7	-3.8	-3.5	3.1
O=C(Nc1cccnc1Cl)c1noc2c1CCc1ccccc1-2	-1.8	0.0	5.4	-6.4	-0.7	2.1
Nc1n[nH]c(-c2ccccc2[N+](=O)[O-])n1	0.7	-0.2	8.4	0.0	-3.6	0.9
COC(=O)c1cccc(NS(=O)(=O)c2ccc(OC)c(OC)c2)c1C	19.1	-0.1	0.3	14.9	-1.6	4.9
CC(C)CCN1CCN(Cc2cn[nH]c2C2CCCCC2)CC1CCO (stereo not drawn)	0.5	0.3	-3.4	-6.1	15.2	15.7
Cc1ccc(Nc2nnc(SCc3ccccc3)s2)cc1	-5.5	4.7	-10.4	16.6	-6.5	-1.1
Nc1cc(=O)[nH]c(SCc2ccc(Cl)cc2)n1	-0.1	-0.3	2.2	-5.6	-5.1	-1.5
CCOC(=O)c1ccc(NC(=O)CN2CCN(CCN=CC3=C(O)CC(C)(C)CC3=O)CC2)cc1	6.3	0.1	3.2	-2.0	-3.9	4.3
O=C(NCCc1cccc(F)c1)C1CCC(=O)N(CCCc2ccccc2)C1 (stereo not drawn)	5.3	-0.1	10.0	-4.8	-6.2	-0.2
COc1ccc(Cn2c3ccc(OC)cc3c3nc4ccccc4nc32)cc1	11.3	1.9	3.3	-8.8	-7.8	18.1
Cc1cc(NC(=O)CCSc2ccc(Cl)cc2)no1	6.0	1.1	1.2	-14.1	10.8	-1.6
COC(=O)C1=C(O)/C(=C\c2ccc(OCC(=O)Nc3ccc(OC)cc3)cc2)N=C1C	-1.8	-0.9	?	-5.7	34.0	2.8
O=C(CN1CCCN(S(=O)(=O)c2ccc(F)cc2)CC1)Nc1c(Cl)cccc1Cl	-15.6	0.0	4.2	-5.5	-7.8	2.0

Random excerpt: four entries already listed.
Compound	CtBP-E1A inh	TRPML1 ag	TRPV1 PAM	D2 potentiator	TRPML1 blocker	Six1-Eya2 inh
Cc1sc2ncnc(N/N=C/c3cccc(O)c3)c2c1C	-24.1	-1.8	-4.1	-5.7	-8.7	?
O=C(Nc1cccc(-c2csc(Nc3ccc(Cl)cc3)n2)c1)c1cc([N+](=O)[O-])cc(C(F)(F)F)c1	-6.5	-0.8	-5.5	2.8	19.0	-12.5
O=C(NCCc1cccc(F)c1)C1CCC(=O)N(CCCc2ccccc2)C1 (stereo not drawn)	5.3	-0.1	10.0	-4.8	-6.2	-0.2
Cc1cc(NC(=O)CCSc2ccc(Cl)cc2)no1	6.0	1.1	1.2	-14.1	10.8	-1.6

Additional structures
Compound	CtBP-E1A inh	TRPML1 ag	TRPV1 PAM	D2 potentiator	TRPML1 blocker	Six1-Eya2 inh
CCN(CC)S(=O)(=O)c1ccc(C)c(C)c1	4.6	-0.3	-0.7	-8.9	3.0	3.8
O=C(CN1CCOCCOCCN(CC(=O)Nc2ccccc2)CCOCC1)Nc1ccccc1	6.3	0.3	10.7	-9.8	-3.0	2.4
O=[N+]([O-])/C=C\c1ccc(N2CCCC2)c(F)c1	4.7	?	-3.2	6.5	-7.0	2.8
O=C1c2cccnc2C(O)N1Cc1cccs1 (stereo not drawn)	6.7	-0.6	9.2	-14.2	1.0	4.7
Cc1cc(C(=O)CSc2nc(N)cc(N)n2)c(C)n1CCc1ccc(F)cc1	-15.9	-0.2	?	7.9	-3.8	-20.8
O=C(Nc1ncc(Cc2cccc(C(F)(F)F)c2)s1)C1CCCO1 (stereo not drawn)	0.6	1.7	-2.6	-14.0	5.5	6.3
CC1=C(C(=O)N(C(C)C)C(C)C)CC(CC(=O)NC2CCCC2)C(=O)N1Cc1ccc(F)cc1 (stereo not drawn)	1.9	-0.5	/	-5.9	-1.5	11.2
COc1cc(-c2nc(-c3ccccc3)c(-c3cccs3)[nH]2)cc(OC)c1O	?	-0.5	2.5	19.7	-2.7	?
COc1ccccc1C(=O)COC(=O)CCNS(=O)(=O)c1ccc(C)c(C)c1	4.8	0.0	-5.0	-20.4	-7.8	2.5
Cc1ccc(CSc2nnc(-c3cccnc3)o2)cc1	23.2	1.4	0.1	-4.6	12.8	12.0
Cc1ccc(OCC(=O)NNC(=O)C2CCN(c3nc(C)cc(C)n3)CC2)cc1	10.5	-0.5	-3.1	-2.3	-7.9	-0.2
COc1ccc(NC(=O)CCN2CCCC(C)C2)cc1 (stereo not drawn)	-2.1	-0.1	-11.1	-27.7	-3.7	-2.5
CC(C)(C)c1csc(NC(=O)Nc2ccccc2)n1	-0.3	1.4	-13.8	-3.4	-12.6	-8.1
O=C(NCc1ccco1)c1ccc(Cl)c(S(=O)(=O)N2CCc3ccccc32)c1	-6.0	1.7	-4.6	0.5	15.6	-2.0
COc1ccc(CCCCCCOCc2ccccc2)cc1	5.5	0.8	1.1	-3.9	-8.9	56.7
CC(C)(C)c1ccc(NC(=O)COC(=O)c2ccc([N+](=O)[O-])s2)cc1	-11.3	2.0	-12.3	0.4	27.2	-22.4
O=C(NNC(=O)C1[C@H]2CCCC[C@@H]12)Nc1cccc2ccccc12 (stereo partly drawn)	6.9	0.9	10.9	-0.3	10.0	2.1
CCC(C)C(NS(=O)(=O)c1ccc(C)cc1)C(=O)NCCCN1CCOCC1 (stereo not drawn)	4.3	-0.3	15.9	-9.8	-9.5	-0.4
Cc1ccc(N2CC(=O)N(CC(=O)O)C2=O)cc1	0.5	-1.0	17.3	-3.7	8.2	11.6
COc1ccccc1/C=N/NC(=O)c1ccc(NC(=O)c2ccccc2Br)cc1	-9.8	0.6	-13.2	2.0	0.4	-12.4

More structures:
Compound	CtBP-E1A inh	TRPML1 ag	TRPV1 PAM	D2 potentiator	TRPML1 blocker	Six1-Eya2 inh
CC(=O)Nc1ccc(NC(=O)Cn2cnc3c(nnn3Cc3ccc(F)cc3)c2=O)cc1	-19.0	0.4	4.7	-4.7	29.2	2.7
Cc1c(C(=O)Nc2ccc(Br)cc2)cnn1C	6.3	0.1	-11.9	-27.6	0.7	-4.7
CC1(C)CC(NC(=O)c2ccc(F)cc2)CC(C)(C)N1	2.4	-0.3	/	-13.9	-4.5	3.7
COCCn1c(=O)[nH]c2cc(C(=O)NCC3CCCO3)ccc2c1=O (stereo not drawn)	-2.3	1.0	-3.5	5.6	2.1	-1.8
CC(NS(=O)(=O)c1ccc([N+](=O)[O-])cc1)C(=O)NN (stereo not drawn)	/	0.5	6.6	-3.1	-12.6	-0.5
CSc1nsc(/C=C/Nc2cccc(Cl)c2)c1C#N	-10.9	1.4	15.7	21.0	-13.0	8.6
Cc1cc(OC(C)C(=O)Nc2cccnc2)ccc1Cl (stereo not drawn)	1.9	2.6	7.8	-9.2	3.2	-0.6

Assay outcomes deposited in PubChem BioAssay by National Center for Advancing Translational Sciences (NCATS).
